E coli growth: E. coli growth inhibition; 0.21% of 330,000 active; AID 1053175; OD600 absorbance (no concentration beside the values); Escherichia coli growth, OD600, 23 h; stronger effect = lower value;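 active means OD600 absorbance below the run mean of sample wells minus 3.6 SD, in any replicate, cut at about 0.56 in these data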;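 further: stock transfer was 300 nL into about 60 µL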
Beta2AR agonist: activates human beta-2 adrenergic receptor causing internalization | Am2.2-beta2AR cells, FAP receptor internalization, flow cytometry; reference of the scale not given here | response, % (concentration not given with the values) | 0.43% of 340,000 active | AID 504454;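 active means response above a set limit, near 3 SD of response in nonfluorescent compounds, cut at about 42% in these data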;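 further: stock transfer was 100 nL into about 11 µL; a reference agonist was the positive control; negative values mostly stem from fluorescent compounds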
Target sequence (P07550 whole entry, looked up): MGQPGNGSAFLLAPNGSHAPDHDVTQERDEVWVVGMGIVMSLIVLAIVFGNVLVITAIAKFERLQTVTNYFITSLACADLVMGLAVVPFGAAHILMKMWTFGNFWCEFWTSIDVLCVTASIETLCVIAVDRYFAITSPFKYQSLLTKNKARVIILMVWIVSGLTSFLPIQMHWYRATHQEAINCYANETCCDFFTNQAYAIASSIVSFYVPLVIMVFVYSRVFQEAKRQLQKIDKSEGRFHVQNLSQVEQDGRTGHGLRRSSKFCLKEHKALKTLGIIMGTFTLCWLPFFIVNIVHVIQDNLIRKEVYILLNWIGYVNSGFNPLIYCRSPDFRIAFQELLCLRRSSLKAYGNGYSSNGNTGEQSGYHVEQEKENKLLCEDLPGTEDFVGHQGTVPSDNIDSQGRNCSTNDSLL
UCH37 inh: human UCH37 deubiquitinating enzyme inhibition; purified proteasome/UCH37, Ub-AMC cleavage fluorescence; inhibition, % (concentration not given with the values); 0.33% of 330,000 active; AID 588478;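 active means mean of two replicates above 20%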;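 further: 0% = compound-free wells with enzyme and 100% = wells lacking proteasome; stock transfer was 100 nL into about 20 µL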
Target sequence (Q9Y5K5 whole entry, looked up): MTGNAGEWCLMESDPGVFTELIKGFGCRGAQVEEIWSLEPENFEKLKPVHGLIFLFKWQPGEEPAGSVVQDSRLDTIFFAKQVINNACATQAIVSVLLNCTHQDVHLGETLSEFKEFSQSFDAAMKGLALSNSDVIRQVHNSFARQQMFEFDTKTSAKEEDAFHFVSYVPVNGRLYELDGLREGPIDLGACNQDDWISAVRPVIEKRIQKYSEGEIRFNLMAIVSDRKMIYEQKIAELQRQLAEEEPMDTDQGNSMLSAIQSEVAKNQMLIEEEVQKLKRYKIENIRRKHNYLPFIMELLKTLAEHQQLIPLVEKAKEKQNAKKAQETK
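Schedule: 30 min plus 25 min, room temperature / Material: human UCH37 within purified proteasomes / Technique: AMC fluorescence intensity at 355/460 nm / Buffer or medium: pH 7.4 Tris-HCl (50 mM) with ovalbumin, ATP-MgCl2, DTT / Controls: wells without proteasome as full block, compound-free enzyme plus substrate as uninhibited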
Bfl-1 A1 inh: inhibitors of the anti-apoptotic protein A1, read as caspase activation; MEF A1-2A-BIM cells, Caspase-Glo 3/7 luminescence, 3 h; percent of clofoctol response, vehicle zero; caspase activation, % (concentration not given with the values); 0.066% of 330,000 active;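 active means over half of replicate activation scores above 10%, or exactly half above 10 with the replicate mean above 10; inconclusive means replicate mean below 10 yet half the replicates above 10; inactive means over half of replicates below 10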;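 further: wells of about 30 µL received 50 nL stock; many hits fall short of the cut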
Vif TR-FRET: HIV-1 Vif–A3G interaction blockers – biochemical, TR-FRET, GST-Vif 1-94, biotin-A3G peptide, dose response retest, primary screen (AID 1117319); TR-FRET GST-Vif / biotin-A3G peptide binding; higher % means a stronger effect; test concentration not given here; strong numbers were not always called active; inhibition, %, or IC50 in µM where a hit was titrated; 0.57% of 260,000 active;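 active means above the screen mean plus three standard deviations and confirmed in dose response; inconclusive means results disagree or hit not tested in dose response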;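 further: Vif residues 1-94 fused to GST binding biotinylated APOBEC3G peptide 110-148; 0% = full assay without inhibitor and 100% = GST in place of GST-Vif; retest series ran down from 100 µM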
HNF4A DNA FP: change in binding of human HNF4 alpha to DNA; P41235; activity change, % at 10 µM; 0.3% of 360,000 active; HNF4a-FITC DNA binding, fluorescence polarization, 1 h; in the data active means activity change above about 30%, passing the limit was not always enough;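 further: controls were the assay level and a saturating level of protein; the project sought stronger binding though the title names inhibitors; some compounds called inactive have numbers as strong as hits; positive values seem to mean higher polarization but the record does not say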
LANA-H2B inh: blocks KSHV LANA binding to histone H2A/H2B. inhibition, % (concentration not given with the values). Q9QR71. cell-free LANA-H2A/H2B peptide, fluorescence polarization. 0.6% of 320,000 active; in the data active means inhibition mostly above about 10%, no sharp cut-off; inactive means mostly below about 6.7%;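 further: stock transfer was 7.5 nL into about 10 µL; 0% = median of vehicle wells and 100% = median of positive control wells; one replicate is shown; the record names a cut of 25% in any replicate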
The depositor's hits bear a star; i = inactive; ? = inconclusive; . = no result given; & = joins results of further samples. No enrichment for hits (roughly 2.1% active in at least one column).

entry	SMILES	E coli growth	Beta2AR agonist	UCH37 inh	Bfl-1 A1 inh	Vif TR-FRET	HNF4A DNA FP	LANA-H2B inh
1	Cc1ccccc1-n1c(-c2ccc(Cl)cc2)cnc1SCC(=O)NC1CCS(=O)(=O)C1 (stereo not given)	.	6	.	-2.0	0%	-4.8	-7.4
2	CCn1cc(C(=O)NCc2ccc(Cl)cc2)c(=O)c2cc(S(=O)(=O)N3CCOCC3)ccc21	0.68	-27	1.9	-0.2	0%&3%	3.8	0.5
3	CCOC(=O)C1CN(S(=O)(=O)c2cccs2)c2ccc(CC(=O)OC)cc2O1 (stereo not given)	0.67	32	2.1	-0.1	.	-8.0	-13
4	COCC(=O)N(Cc1ccc(OC)cc1)Cc1nc2ccccc2c(=O)[nH]1	0.73	3	5.4	0.2	-4%	15	2.3
5	O=C(CCCN1C(=O)c2cccc3cccc(c23)C1=O)NC1CCS(=O)(=O)C1 (stereo not given)	0.66	-1	-175	-0.3	-1%	-0.2	-5.3
6	O=C(c1ccc2c(c1)OCO2)C1CCCN(Cc2cccc(C(F)(F)F)c2)C1 (stereo not given)	0.67	12	-0.5	-1.1	.	4.8	-7.7
7	CCCC(=O)c1cn(CC(=O)OC)c2ccccc12	0.71	-7	-5.1	0.3	11%	-0.4	-0.4
8	O=C(Cn1cnc2ccccc21)N1CCN(S(=O)(=O)c2ccccc2)CC1	0.68	-1	0.3	-0.5	?	-6.3	5.3
9	Cc1cccc(/N=C/c2c(O)c3ccccc3oc2=O)n1	.	4	.	0.7	-3%	0.7	0.9
10	CC1(C)CC(=O)C2=C(C1)Nc1ccccc1NC2c1cccnc1 (stereo not given)	0.68	0	14	0.6	.	-3.5	-1.1
11	CC(C)OCCCN1CC(=O)N2C(c3ccccc3)c3[nH]c4ccccc4c3C[C@H]2C1=O (stereo not given in full)	0.69	3	1.8	0.7	-5%	-2.3	1.2
12	COc1ccc(/C=C2\SC(=O)N(CCNC(=O)C3=COCCO3)C2=O)cc1	0.71	-9	5.5	0.5	3%	-1.2	0.6
13	CCOC(=O)NCCOC(=O)Nc1ccc(Cl)cc1	0.7	8	0.2	0.6	21%	0.5	-9.1
14	CCOc1ccc(C(=O)N2CCN(c3ncccn3)CC2)cc1	0.65	-10	2.0	0.9	.	0.8	2.3
15	CCCCCCn1c(-c2cccs2)n[nH]c1=S	0.68	7	-33	-0.8	-6%	0.6	1.0
16	Cc1cc(C)c(S(=O)(=O)Nc2ccccc2C(=O)N2CCOCC2)c(C)c1	0.71	10	0.8	0.5	.	-3.0	0.4
17	Cn1cc(-c2cccc(Cl)c2)cc(C#N)c1=O	0.68	-5	-99	0.1	?	-2.2	1.8
18	O=C1[C@@H]2Cc3ccccc3CN2C(=O)N1c1cccc(F)c1	0.7	-4	2.8	-0.6	1%	-1.4	1.1
19	Cc1ccccc1C(=O)NNC(=O)C1CCN(C(=O)Nc2ccccc2)CC1	0.62	-7	-0.3	-0.2	5%	-0.6	5.2
20	COc1ccc(C2CC(=O)Oc3c(C(CCN4CCCC(C)C4)c4ccc(N(C)C)cc4)c(OC)cc(OC)c32)cc1 (stereo not given)	.	12	1.4	0.6	13%	11	-0.8
21	CCOC(=O)c1sc2ccc(S(=O)(=O)N3CC(C)CC(C)C3)cc2c1N (stereo not given)	0.74	-2	-30	0.7	-90%	-1.0	.
22	CSc1ccccc1NC(=O)NCCCl	0.65	11	0.8	0.3	0%	0.6	-4.1
23	O=C1CCC(c2ccccc2)N1c1ccccc1 (stereo not given)	0.66	-3	3.4	.	-6%	-3.6	.
24	C=CCNc1nc(-c2ccc(O)c(C(N)=O)c2)cs1	0.7	-3	3.2	1.0	8%	0.3	5.4
25	CC(C)c1nc(SCC(=O)Nc2cccc(C(=O)O)c2)c2c3c(sc2n1)CCCC3	0.65	-1	2.2	0.7	.	-1.5	-1.8
26	COCCCNc1nc2ccccc2nc1NS(=O)(=O)c1ccc(OC)cc1	0.66	0	-119	0.6	-1%	2.2	-5.9
27	Cc1ccccc1OCCNc1cc(N2CCN(CCO)CC2)ccc1[N+](=O)[O-]	0.69	5	9.1	-0.3	.	0.7	-3.3
28	CC1CCN(S(=O)(=O)c2ccc(NC(=O)CN3CCN(c4ccccc4)CC3)cc2)CC1	0.71	-2	3.2	0.1	8%	3.0	6.6
29	Cc1c(CC(=O)N2CCN(C(=O)C3COc4ccccc4O3)CC2)c(=O)oc2cc(O)ccc12 (stereo not given)	0.68	0	i	1.8	.	3.4	5.7
30	CC(NC(=O)COC(=O)C1CCN(S(=O)(=O)c2ccccc2C(F)(F)F)CC1)c1ccccc1 (stereo not given)	0.69	-1	-8.7	0.0	.	-0.1	2.0
31	COc1cc(/C=C2/C(=O)N(c3ccc(C(=O)O)cc3)N=C2C)cc(OC)c1O	0.67	-7	9.9	1.6	3%	5.7	0.7
32	COc1cccc2cc(C(=O)N3CCCc4ccccc43)oc12	0.7	8	1.4	1.3	.	4.6	-1.2
33	COc1cc(C(C#N)N2N=C(c3ccccc3)CC2c2ccccc2)ccc1O (stereo not given)	0.68	-1	-1.1	-4.0	5%	1.3	0.2
34	Cc1cc(C)n(CC(=O)N/N=C/c2ccc(C)o2)n1	.	0	.	-0.4	0%	0.5	0.6
35	COC(=O)CN1C(=O)C(C)(C)Oc2ccc(C(=O)NC3CCCC3)cc21	0.66	3	2.2	0.1	.	-1.4	6.7
36	Cc1onc(-c2ccccc2)c1C(=O)Oc1ccccc1	0.68	4	3.8	-0.3	-2%	-2.0	1.2
37	O=C(NCCCN1CCCC1=O)c1cccc(S(=O)(=O)NCc2ccccc2)c1	0.7	-6	0.6	-0.3	-1%	-0.9	-0.8
38	CS(=O)(=O)N1CCC(C(=O)Nc2ccc(Br)cc2F)CC1	0.66	1	2.8	-0.3	-3%	-0.5	1.7
39	CC(C)(C)C(=O)C1=C(O)C(=O)N(Cc2ccccc2)C1c1ccccc1F (stereo not given)	0.61	-5	9.4	1.0	-8%	-1.9	0.5
40	OCCCNc1nnc(-c2ccccc2)c2ccccc12	0.66	-9	1.5	0.2	-2%	1.3	-1.1
41	Cc1cc(C)cc(NC(=O)N(CCC#N)Cc2cccs2)c1	0.69	-5	2.7	0.4	0%	-2.2	-2.5
42	Nc1ccc2nc3c(=O)[nH]c(=S)[nH]c3nc2c1	0.68	-15	20	-0.1	.	-96	16
43	CCC(C)NC(=O)CCC(=O)NNc1nc2ccccc2c2nc(C)nn12 (stereo not given)	0.65	3	4.0	0.0	.	5.6	2.4
44	O=C(NCCN1C(=O)S/C(=C\c2ccccc2F)C1=O)C1CCCN1C(=O)c1cccs1 (stereo not given)	0.75	1	7.2	0.6	17%	3.3	-4.8
45	COc1ccccc1/C=C/c1ccc2cccc(O)c2n1	0.67	6	1.2	-3.1	.	-2.0	5.7
46	COc1cc(C2=NOC(C(=O)NCc3ccco3)C2)cc(OC)c1OC (stereo not given)	0.73	2	4.2	0.3	-2%&-3%	-4.7	-3.4
47	CCc1nnc(NC(=O)c2nc(Cl)ccc2Cl)s1	0.71	-8	4.2	-2.8	.	3.5	5.8
48	NNC(=O)c1sc2cc(C(F)(F)F)cnc2c1-c1cccnc1	0.67	-8	0.7	1.0	2%	-0.3	2.3
49	O=C(NCC(c1ccco1)N1CCN(c2ccc(F)cc2)CC1)C(=O)NC1CCCCC1 (stereo not given)	0.64	-2	-1.4	0.0	7%	3.9	1.2
50	O=C(Cc1nn[nH]n1)NCCC1=CCCCC1	0.8	13	6.1	0.1	6%	0.3	-4.5

Next section.
entry	SMILES	E coli growth	Beta2AR agonist	UCH37 inh	Bfl-1 A1 inh	Vif TR-FRET	HNF4A DNA FP	LANA-H2B inh
51	CC(=O)Oc1ccc(C(=O)Nc2nccs2)cc1	0.7	18	2.6	-4.4	-3%	-0.6	12
52	CC(C)(C)c1c(Cl)c(O)c(-c2ccccc2)c(=O)n1-c1ccccc1	0.69	2	2.4	.	11%	-1.0	.
53	Cc1cc(C)n2nc(C(=O)NNC(=O)c3ccc(Cl)cc3)nc2n1	0.64	-4	2.7	-0.1	7%	2.4	5.9
54	CNCc1c(OCc2ccccc2F)ccc2ccccc12	0.66	37	2.9	0.3	.	2.1	-3.3
55	Cc1onc(-c2ccccc2)c1C(=O)NC(=S)NNC(=O)c1cccnc1	0.62	2	8.7	-0.3	.	1.5	1.2
56	Cc1ccc(NC(=O)CSc2ccc3nnc(-c4ccccn4)n3n2)cc1	0.71	14	3.4	1.4	.	-1.0	0.0
57	CCNCC(=O)Nc1ccc(N2CCOCC2)cc1	0.68	0	0.5	0.3	8%	-1.9	2.0
58	COc1ccccc1N(C(=O)c1cncc(Br)c1)c1nc(-c2ccc(C)cc2)cs1	0.74	-2	0.7	-0.2	-22%	1.6	3.7
59	Cc1cc(N2CCOCC2)nc2ccc(NC(=S)NCCC(C)C)cc12	0.67	1	-19	0.6	3%	2.0	0.9
60	CCN(C(=O)CSc1nnc2ccccn12)C1CCS(=O)(=O)C1 (stereo not given)	0.69	7	0.4	0.7	-5%	4.2	-0.3
61	O=C(CSc1nnc2ccc(-c3ccccn3)nn12)Nc1ccccc1F	0.69	15	-151	-1.0	-29%	2.7	3.2
62	CC1CCCN(C(=O)c2cc(-c3cccs3)nc3ccccc23)C1 (stereo not given)	0.6	-11	-192	0.2	-9%	-0.5	3.4
63	CCN(CC)C(=O)Cn1cc(C(=O)C(=O)N(C)C2CCN(C)CC2)c2ccccc21	0.66	0	2.5	-0.6	.	0.9	-10
64	O=C(c1ccccc1)c1nn(-c2ccccc2)c(=O)cc1C(F)(F)F	0.71	10	3.0	-0.5	26%	-1.2	5.1
65	COc1cc(=O)[nH]c(SCC(=O)Nc2ccc3ccccc3c2)n1	.	-4	.	-0.7	-4%	-0.1	1.3

Two entries from above in another layout.
(64) O=C(c1ccccc1)c1nn(-c2ccccc2)c(=O)cc1C(F)(F)F
- E coli growth: 0.71
- Beta2AR agonist: 10
- UCH37 inh: 3.0
- Bfl-1 A1 inh: -0.5
- Vif TR-FRET: 26%
- HNF4A DNA FP: -1.2
- LANA-H2B inh: 5.1
(65) COc1cc(=O)[nH]c(SCC(=O)Nc2ccc3ccccc3c2)n1
- E coli growth: .
- Beta2AR agonist: -4
- UCH37 inh: .
- Bfl-1 A1 inh: -0.7
- Vif TR-FRET: -4%
- HNF4A DNA FP: -0.1
- LANA-H2B inh: 1.3

Assay outcomes from PubChem BioAssay.
